Screening results as filed in PubChem.
rRNA inh HTS = selective bacterial rRNA inhibition in E. coli | E. coli WT GFP vs humanized-ribosome RFP mutants, fluorescence, 24 h; stronger effect = lower value; DMSO median 0, no signal -100 | GFP signal change (wild-type ribosome), % (concentration not given with the values) | hit rate 1.6% among 350,000 | AID 720706;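 active = significant combined selectivity score with lowered wild-type GFP, culture density cut under 30%, mutant RFP and density less affected; inactive = any of these conditions unmet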; also: one replicate is shown; some compounds called inactive have numbers as strong as hits
Beta cell apopt = beta cell apoptosis inhibition. INS-1E cytokine-induced death, ATP luminescence, 48 h; percent of positive-control rescue, neutral wells zero. protection from apoptosis, % (test concentration not listed). hit rate 0.8% among 300,000. AID 435005;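 active = all replicates at 75% or more, or half of them and the mean; inconclusive = half reach 75% but not the mean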;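 also: 0% = cytokine-treated negative control wells and 100% = positive control rescue; higher means more ATP so stronger rescue from cytokine killing; wells of about 40 µL received 100 nL stock; the first replicate is given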
RanGTP-Imp inh = inhibitors of RanGTP-importin-beta interaction, primary screen, biochemical, FRET, CFP-Ran, YFP-importin-beta, homogeneous | cell-free CFP-Ran/YFP-importin-beta FRET ratio | inhibition, % (concentration not given with the values) | hit rate 1.1% among 300,000;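 active = most replicates above 15%; inconclusive = exactly half above 15%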;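 also: 0% = DMSO wells and 100% = Ran loaded with GDP instead of GTP; wells of about 40 µL received 100 nL stock; the first replicate is given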
A1 inh = inhibitors of the anti-apoptotic protein A1, read as caspase activation; hit rate 0.066% among 330,000; caspase activation, % (no concentration beside the values); MEF A1-2A-BIM cells, Caspase-Glo 3/7 luminescence, 3 h; percent of clofoctol response, vehicle zero;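 active = over half of replicate activation scores above 10%, or exactly half above 10 with the replicate mean above 10; inconclusive = replicate mean below 10 yet half the replicates above 10; inactive = over half of replicates below 10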;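 also: wells of about 30 µL received 50 nL stock; many hits fall short of the cut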
T cruzi repl = blocks replication of Trypanosoma cruzi | T. cruzi beta-gal in NIH3T3, luminescence, 90 h | inhibition, % (concentration not given with the values) | hit rate 1.4% among 300,000;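 active = mean inhibition across valid replicates above about 55%, limit read from the data; inconclusive = mean below that limit but half or more replicates reach it; inactive = mean below it, under half of replicates reach it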;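 also: signal also drops with host cell toxicity which is not excluded here; 0% = plate median of DMSO wells and 100% = zero luminescence signal; higher percent means less beta-gal luminescence so fewer parasites; stock transfer was 50 nL into about 50 µL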
Vif A3G = HIV-1 Vif–A3G interaction blockers – biochemical, TR-FRET, GST-Vif 1-94, biotin-A3G peptide, dose response retest, primary screen (AID 1117319). TR-FRET GST-Vif / biotin-A3G peptide binding; higher % means a stronger effect; test concentration not given here; strong numbers were not always called active. one-dose inhibition, %; IC50 in µM for titrated hits. hit rate 0.57% among 260,000;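 active = above the screen mean plus three standard deviations and confirmed in dose response; inconclusive = results disagree or hit not tested in dose response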;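 also: Vif residues 1-94 fused to GST binding biotinylated APOBEC3G peptide 110-148; 0% = full assay without inhibitor and 100% = GST in place of GST-Vif; retest series ran down from 100 µM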
Calb FLC = affects C. albicans growth with fluconazole; C. albicans CaCi-2 (fluconazole-resistant clinical isolate) + fluconazole, Alamar Blue growth, 48 h; growth inhibition, % (test concentration not listed); hit rate 0.57% among 300,000; AID 1979;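 active = most replicates above 75%; inconclusive = exactly half above 75%; inactive = most below 75%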;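 also: all wells also contain fluconazole at 8 µg/ml as a sub-toxic cotreatment; 0% = median of DMSO wells and 100% = median of geldanamycin control wells; wells of about 8 µL received 7.5 nL stock; the first replicate is given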
MLL AF4-AF9 inh = MLL-AF4/AF9 protein interaction inhibition. P42568. AlphaScreen, biotin-AF4 peptide binding to FLAG-AF9. inhibition, % at 10 µM. hit rate 0.47% among 350,000;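 active = every replicate reaching a set inhibition limit, whatever the replicate mean, cut at about 25% in these data; inconclusive = mean inhibition reaches that limit but some replicates miss it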;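 also: 0% = plate neutral control median and 100% = total signal loss; the record names both 10 and 1 µM as test concentration; the first replicate is given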
Target sequence (P42568 whole entry, looked up): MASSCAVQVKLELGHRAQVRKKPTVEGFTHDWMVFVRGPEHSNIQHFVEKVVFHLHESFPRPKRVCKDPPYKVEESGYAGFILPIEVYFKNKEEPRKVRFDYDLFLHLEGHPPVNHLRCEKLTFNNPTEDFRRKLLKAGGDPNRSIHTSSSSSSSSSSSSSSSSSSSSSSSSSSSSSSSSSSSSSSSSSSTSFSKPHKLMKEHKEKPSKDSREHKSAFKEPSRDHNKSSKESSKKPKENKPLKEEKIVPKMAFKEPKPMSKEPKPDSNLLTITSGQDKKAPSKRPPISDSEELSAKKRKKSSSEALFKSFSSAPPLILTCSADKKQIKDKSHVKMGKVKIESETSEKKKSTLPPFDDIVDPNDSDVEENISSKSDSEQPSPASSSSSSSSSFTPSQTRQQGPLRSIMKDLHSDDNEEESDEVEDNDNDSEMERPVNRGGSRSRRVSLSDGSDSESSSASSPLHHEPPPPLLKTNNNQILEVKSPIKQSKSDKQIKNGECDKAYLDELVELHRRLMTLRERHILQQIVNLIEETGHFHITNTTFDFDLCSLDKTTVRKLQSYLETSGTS
rRNA inh HTS OD600 = recorded beside rRNA inh HTS, whose call it bears; OD600 change, %; measured here: OD600 growth;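 optical density of the mix in the first replicate; 0 = DMSO median and -100 = no signal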
rRNA inh HTS RFP = also measured in rRNA inh HTS; calls as there; RFP signal change, %; measured here: RFP humanized mutant strains;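 first replicate; 0 = DMSO median and -100 = no signal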
Numbers without * were called inactive; ? = inconclusive; . = no result given.

cpd	compound	Calb FLC	A1 inh	rRNA inh HTS RFP	MLL AF4-AF9 inh	rRNA inh HTS OD600	Vif A3G	RanGTP-Imp inh	T cruzi repl	Beta cell apopt	rRNA inh HTS
1	CCC(C)NC(=O)CSc1n[nH]c(=O)n1CCc1ccccc1 (centres undefined)	-1	-1.3	0.1	-1.9	9	.	1.4	-12	-5	6
2	O=S(=O)(Nc1ccc(N2CCOCC2)nn1)c1ccccc1	-4	0.5	.	.	.	0%	3.0	-11	6	.
3	CCCc1nc(N2CCN(S(=O)(=O)c3ccc(Cl)cc3)CC2)c2c(C)c(C)sc2n1	-9	0.9	2.9	-0.7	-2	.	.	.	0	7
4	Cc1ccc(CCC(=O)Nc2ccc(N(C)C)cc2)o1	-6	0.6	1.5	3.8	11	18%	0.1	34	-5	9
5	C/C(Cc1ccccc1)=N\NC(=O)C1CCCCC1	-11	-0.2	.	.	.	-2%	?	2	-8	.
6	COC(=O)c1ccccc1NC(=S)NC(NC(=O)c1ccccc1[N+](=O)[O-])C(Cl)(Cl)Cl (centres undefined)	11	1.8	.	.	.	2%	-0.8	-6	-3	.
7	Cn1ncc(Cl)c(Oc2ccc(C(C)(C)C)cc2)c1=O	-21	-1.4	-0.5	-5.6	-10	.	2.6	-3	-2	-9
8	O=C(CCCN1C(=O)/C(=C/c2ccccc2)SC1=S)Nc1ccccc1O	15	0.3	4.1	-0.7	4	.	-2.6	2	.	1
9	COc1ccc2oc(=O)c(/C(C)=N/NC(=O)c3ccncc3)cc2c1	.	0.2	-5.2	-0.3	9	31%	.	.	-2	-1
10	O=C(CN1C(=O)NC2(CCc3ccccc32)C1=O)Nc1cccc(F)c1 (centres undefined)	6	0.1	0.4	0.1	-1	0%	0.4	-2	0	-1
11	CCOC(=O)CCCNC(=O)COc1ccccc1C#N	?	1.3	.	.	.	-2%	1.2	1	-2	.
12	O=C(OCc1ccc2c(c1)OCO2)c1ccc(S(=O)(=O)N2CCCC2)cc1	3	-0.4	.	.	.	-2%	2.1	7	-6	.
13	COc1ccc(OCCCC(=O)Nc2ccc(N3CCOCC3)cc2)cc1	46	0.2	0.7	-5.9	-5	4%	-0.8	21	-3	5
14	O=C(Nc1cnccn1)c1cccs1	2	-1.2	.	.	.	19%	5.2	-17	5	.
15	Cc1ccc(F)cc1NC(=O)CN1CCN(Cc2ccccc2)CC1	0	?	0.6	-0.5	-4	-13%	-0.6	-31	-2	1

New compounds follow
cpd	compound	Calb FLC	A1 inh	rRNA inh HTS RFP	MLL AF4-AF9 inh	rRNA inh HTS OD600	Vif A3G	RanGTP-Imp inh	T cruzi repl	Beta cell apopt	rRNA inh HTS
16	COCC(C)NCc1cccc([N+](=O)[O-])c1 (centres undefined)	-5	0.2	-3.3	1.8	5	-4%	-0.3	-2	0	11
17	O=C(Nc1cccc(C(=O)N2CCN(c3cccc(Cl)c3)CC2)c1)c1ccccc1	31	0.3	-1.5	-1.7	-5	10%	-2.2	0	8	-4
18	O=C(Nc1nnc(C2=COCCO2)o1)c1ccc(S(=O)(=O)N2CCCC2)cc1	-20	0.0	-4.4	2.9	0	-17%	0.5	-5	0	-5
19	O=C1CC(c2ccccc2)CCc2sccc2N1 (centres undefined)	9	-0.8	.	.	.	-3%	2.3	5	.	.
20	O=C(c1ccc([N+](=O)[O-])cc1Cl)N1CCN(c2ccccn2)CC1	-13	1.5	-2.8	1.2	5	5%	3.2	11	-9	-1
21	Cc1cc(C(=O)O)cc(S(=O)(=O)Nc2ccccc2C(=O)NC(C)c2ccccc2)c1C (centres undefined)	6	-0.6	-3.6	-0.8	3	1%	0.7	-4	-7	-3
22	CC(Oc1ccccc1F)C(=O)Nc1ccc2ccccc2c1 (centres undefined)	19	-0.7	.	.	.	-4%	2.0	-10	-2	.
23	CCOC(=O)Cn1c(=N)n(CCOc2ccc(Br)cc2)c2ccccc21	-14	0.4	-11*	.	-14*	1%	3.7	.	-3	-48*
24	CCOC(=O)c1c(C)oc2c1c(C=NCC1CCCO1)c(O)c1ccccc12 (centres undefined)	0	.	.	.	.	26%	1.2	15	.	.
25	CC(=O)c1cccc(NC(=O)CCc2nnc3ccc(NCc4ccc5c(c4)OCO5)nn23)c1	-18	-0.6	2.2	-0.9	12	-7%	1.6	-33	-2	7
26	CCCCOC(=O)C(C)Oc1ccc(=O)n(-c2ccccc2)n1 (centres undefined)	0	0.9	-1.5	-4.7	5	9%	2.9	-9	-9	0
27	Cc1ccc(N2CC(=O)N(CC(=O)O)C2=O)cc1	-24	-0.2	3.0	-1.4	-17	.	?	1	1	-16
28	CC1CN(Cc2ccccc2)c2nc3c(c(=O)n(CC(=O)O)c(=O)n3C)n2C1 (centres undefined)	1	1.2	-4.5	-0.2	1	.	-7.2	-5	-5	9
29	CCOc1ccc(N=C(/C(C(=O)C(=O)N2CCOCC2)=C(\O)c2ccccc2)c2ccccc2)cc1	-20	-2.6	11	7.8	6	9%	0.3	6	-2	10
30	COc1cccc(OC)c1OCCN1CCN(C(=O)c2ccco2)CC1	-4	-0.1	.	.	.	-5%	-3.9	-4	-7	.

Following part.
cpd	compound	Calb FLC	A1 inh	rRNA inh HTS RFP	MLL AF4-AF9 inh	rRNA inh HTS OD600	Vif A3G	RanGTP-Imp inh	T cruzi repl	Beta cell apopt	rRNA inh HTS
31	CC(=O)Nc1ccc(NC(=O)CSc2nc(=O)n3cccc(C)c3n2)cc1	4	-0.4	-0.3	3.2	9	1%	4.1	-2	.	4
32	C/C(CC(=O)Nc1cccc(C(F)(F)F)c1)=N\NC(=O)c1ccncc1	12	-0.1	4.4	-2.1	-1	.	-4.4	-10	1	0
33	OCCCc1nc2ccccc2n1CCc1ccccc1	-7	-0.2	-10	6.3	-7	17%	-4.4	2	-6	-12
34	CC(NC(=O)c1ccccc1Cl)NC(=O)c1ccccc1Cl	-5	0.9	-1.8	-3.3	1	.	3.2	4	-7	5
35	OCCCc1nc2n(n1)C(c1cccs1)C=C(c1ccccc1)N2 (centres undefined)	11	-0.2	.	.	.	6%	-54	1	7	.
36	COCCNC(=O)c1ccccc1NC(=O)CCSc1ccccc1	32	-0.3	1.5	-1.9	-7	3%	4.4	-5	-2	-9
37	Cc1ccc(S(=O)(=O)N(CC(=O)NCc2cccnc2)c2ccc(F)cc2)cc1	-1	1.0	1.6	0.8	-10	.	3.2	14	.	-3
38	Cc1ccc(-n2c(=O)cc(NCc3cccnc3)[nH]c2=O)cc1	0	1.3	.	.	.	-4%	0.3	-1	-14	.
39	CN(C)C(=O)CSc1ccccc1C(=O)OCC(=O)NC1CC1	.	0.8	2.8	-2.2	8	-3%	.	.	0	7
40	O=C(c1ccc2ccccc2c1)C1CCCN(S(=O)(=O)c2cccnc2)C1 (centres undefined)	14	1.2	-0.1	0.0	-24	-6%	2.5	43	6	-18
41	O=C(NCc1nc2ccccc2[nH]1)C1=C[C@H](c2ccc(C(F)(F)F)cc2)C[C@H](OCCCCO)O1	1	0.5	30	2.3	-46	.	3.0	-1	2	-25
42	O=C(OCC(=O)c1ccc(S(=O)(=O)N2CCCC2)cc1)C1=COCCO1	-11	-0.1	.	.	.	17%	-0.3	-4	1	.
43	CCOC(=O)c1c(C)n(-c2ccc(C)cc2)c2ccc(OCC(O)CNCCCO)cc12 (centres undefined)	16	1.0	-34	27*	-78	-9%	-1.8	.	52	-56
44	FC(F)(F)c1cccc(-n2cc(-c3ccccc3)[nH]c2=S)c1	-6	0.3	5.0	2.4	-13	-7%	1.5	4	7	-10
45	COc1cc(C)nc(Oc2ccc(=O)[nH]n2)n1	0	1.4	.	.	.	1%	2.4	-7	.	.

Next section, overlapping the part above by 6 compounds.
cpd	compound	Calb FLC	A1 inh	rRNA inh HTS RFP	MLL AF4-AF9 inh	rRNA inh HTS OD600	Vif A3G	RanGTP-Imp inh	T cruzi repl	Beta cell apopt	rRNA inh HTS
40	O=C(c1ccc2ccccc2c1)C1CCCN(S(=O)(=O)c2cccnc2)C1 (centres undefined)	14	1.2	-0.1	0.0	-24	-6%	2.5	43	6	-18
41	O=C(NCc1nc2ccccc2[nH]1)C1=C[C@H](c2ccc(C(F)(F)F)cc2)C[C@H](OCCCCO)O1	1	0.5	30	2.3	-46	.	3.0	-1	2	-25
42	O=C(OCC(=O)c1ccc(S(=O)(=O)N2CCCC2)cc1)C1=COCCO1	-11	-0.1	.	.	.	17%	-0.3	-4	1	.
43	CCOC(=O)c1c(C)n(-c2ccc(C)cc2)c2ccc(OCC(O)CNCCCO)cc12 (centres undefined)	16	1.0	-34	27*	-78	-9%	-1.8	.	52	-56
44	FC(F)(F)c1cccc(-n2cc(-c3ccccc3)[nH]c2=S)c1	-6	0.3	5.0	2.4	-13	-7%	1.5	4	7	-10
45	COc1cc(C)nc(Oc2ccc(=O)[nH]n2)n1	0	1.4	.	.	.	1%	2.4	-7	.	.
46	Cc1cc(C)cc(NC(=O)N2CCN(C/C=C/c3ccccc3)CC2)c1	-24	0.2	0.7	4.4	-13	1%	3.7	16	3	-11
47	Cc1cccc(-c2nn(-c3ccccc3)cc2C(=O)NCC(c2cccs2)N2CCOCC2)c1 (centres undefined)	2	0.2	3.0	-13	-7	-4%	-0.5	22	.	-5
48	O=C(CCC(=O)c1ccccc1)NCc1ccccc1	-3	-0.5	-8.7	-53	-8	.	4.7	-15	1	1
49	FC(F)Oc1ccccc1NC(=S)NCc1ccco1	-2	0.1	.	.	.	9%	-1.4	-8	-12	.
50	COc1ccc(NC(=O)CCCCCN2C(=O)[C@@H]3Cc4ccccc4CN3C2=O)cc1Cl	9	-0.2	1.9	-2.1	-2	.	-0.1	2	4	-2
51	O=C(C[n+]1cn(C(F)F)c2ccccc21)c1ccc(Br)cc1	?	0.1	-0.7	0.0	12	20%	4.0	-21	55	11
52	COC(=O)NCC(c1ccc2c(c1)OCO2)N1CCN(c2ccc(OC)cc2)CC1 (centres undefined)	17	-0.9	-0.6	2.6	15	.	3.5	-3	-1	1
53	COc1ccc(CCC(=O)NC(C)C)cc1	-2	-0.6	2.7	-3.9	2	-2%	-0.1	-14	-4	7
54	COc1ccc(NC(=O)Cn2c3ccccc3c3nc4n(c(=O)c32)CCS4)cc1OC	22	0.2	4.0	-2.6	12	.	0.7	1	-2	16
55	NC(=O)C1CCN(c2nc(-c3ccc(Br)cc3)cs2)CC1	-9	-0.1	3.3	-1.2	7	30%	?	-7	-8	6
56	NC(=O)c1sc2nnc(-c3ccccc3)c(-c3ccccc3)c2c1N	21	0.0	-2.9*	.	0.5*	-6%	-11	.	10	-29*
57	Cc1ccc(C)c(NC(=O)CN(C)C(=O)CN2C(=O)C3CCCCC3C2=O)c1 (centres undefined)	1	-0.7	0.8	-3.6	7	-5%	3.4	-11	-6	13
58	Cc1ccc(C)c(-n2c(N)c(C(N)=O)sc2=S)c1	-25	0.5	.	.	.	-1%	-0.3	1	1	.

The list is partial, so the mix of outcomes need not match the whole.
